Screens from PubChem BioAssay.
Beta apoptosis: beta cell apoptosis inhibition | protection from apoptosis, % (no concentration beside the values) | AID 435005 | INS-1E cytokine-induced death, ATP luminescence, 48 h; percent of positive-control rescue, neutral wells zero | hit rate 0.8% among 300,000;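 active = all replicates at 75% or more, or half of them and the mean; inconclusive = half reach 75% but not the mean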;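 note: 0% = cytokine-treated negative control wells and 100% = positive control rescue; higher means more ATP so stronger rescue from cytokine killing; wells of about 40 µL received 100 nL stock; the first replicate is given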
Bfl-1 A1 inh: inhibitors of the anti-apoptotic protein A1, read as caspase activation | MEF A1-2A-BIM cells, Caspase-Glo 3/7 luminescence, 3 h; percent of clofoctol response, vehicle zero | caspase activation, % (no concentration beside the values) | AID 2462 | hit rate 0.066% among 330,000;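 active = over half of replicate activation scores above 10%, or exactly half above 10 with the replicate mean above 10; inconclusive = replicate mean below 10 yet half the replicates above 10; inactive = over half of replicates below 10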;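 note: wells of about 30 µL received 50 nL stock; many hits fall short of the cut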
Vif TR-FRET: HIV-1 Vif–A3G interaction blockers – biochemical, TR-FRET, GST-Vif 1-94, biotin-A3G peptide, dose response retest, primary screen (AID 1117319); TR-FRET GST-Vif / biotin-A3G peptide binding; higher % means a stronger effect; test concentration not given here; strong numbers were not always called active; one-dose inhibition, %; IC50 in µM for titrated hits; hit rate 0.57% among 260,000;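 active = above the screen mean plus three standard deviations and confirmed in dose response; inconclusive = results disagree or hit not tested in dose response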;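 note: Vif residues 1-94 fused to GST binding biotinylated APOBEC3G peptide 110-148; 0% = full assay without inhibitor and 100% = GST in place of GST-Vif; retest series ran down from 100 µM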
LANA-H2A inh: blocks KSHV LANA binding to histone H2A/H2B; inhibition, % (concentration not given with the values); AID 2629; hit rate 0.6% among 320,000; cell-free LANA-H2A/H2B peptide, fluorescence polarization; in the data active = inhibition mostly above about 10%, no sharp cut-off; inactive = mostly below about 6.7%;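 note: stock transfer was 7.5 nL into about 10 µL; 0% = median of vehicle wells and 100% = median of positive control wells; one replicate is shown; the record names a cut of 25% in any replicate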
Calb FLC: C. albicans growth modulation with fluconazole; AID 1979; C. albicans CaCi-2 (fluconazole-resistant clinical isolate) + fluconazole, Alamar Blue growth, 48 h; hit rate 0.57% among 300,000; growth inhibition, % (no concentration beside the values);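 active = most replicates above 75%; inconclusive = exactly half above 75%; inactive = most below 75%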;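 note: all wells also contain fluconazole at 8 µg/ml as a sub-toxic cotreatment; 0% = median of DMSO wells and 100% = median of geldanamycin control wells; wells of about 8 µL received 7.5 nL stock; the first replicate is given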
T cruzi repl: blocks replication of Trypanosoma cruzi. T. cruzi beta-gal in NIH3T3, luminescence, 90 h. inhibition, % (no concentration beside the values). hit rate 1.4% among 300,000. AID 1885;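 active = mean inhibition across valid replicates above about 55%, limit read from the data; inconclusive = mean below that limit but half or more replicates reach it; inactive = mean below it, under half of replicates reach it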;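 note: signal also drops with host cell toxicity which is not excluded here; 0% = plate median of DMSO wells and 100% = zero luminescence signal; higher percent means less beta-gal luminescence so fewer parasites; stock transfer was 50 nL into about 50 µL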
MLL AF4-AF9 inh: inhibitors of human MLL-AF4/AF9 interaction; P42568; AlphaScreen, biotin-AF4 peptide binding to FLAG-AF9; inhibition, % at 10 µM; hit rate 0.47% among 350,000; AID 651704;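 active = every replicate reaching a set inhibition limit, whatever the replicate mean, cut at about 25% in these data; inconclusive = mean inhibition reaches that limit but some replicates miss it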;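 note: 0% = plate neutral control median and 100% = total signal loss; the record names both 10 and 1 µM as test concentration; the first replicate is given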
Target sequence (P42568 whole entry, looked up): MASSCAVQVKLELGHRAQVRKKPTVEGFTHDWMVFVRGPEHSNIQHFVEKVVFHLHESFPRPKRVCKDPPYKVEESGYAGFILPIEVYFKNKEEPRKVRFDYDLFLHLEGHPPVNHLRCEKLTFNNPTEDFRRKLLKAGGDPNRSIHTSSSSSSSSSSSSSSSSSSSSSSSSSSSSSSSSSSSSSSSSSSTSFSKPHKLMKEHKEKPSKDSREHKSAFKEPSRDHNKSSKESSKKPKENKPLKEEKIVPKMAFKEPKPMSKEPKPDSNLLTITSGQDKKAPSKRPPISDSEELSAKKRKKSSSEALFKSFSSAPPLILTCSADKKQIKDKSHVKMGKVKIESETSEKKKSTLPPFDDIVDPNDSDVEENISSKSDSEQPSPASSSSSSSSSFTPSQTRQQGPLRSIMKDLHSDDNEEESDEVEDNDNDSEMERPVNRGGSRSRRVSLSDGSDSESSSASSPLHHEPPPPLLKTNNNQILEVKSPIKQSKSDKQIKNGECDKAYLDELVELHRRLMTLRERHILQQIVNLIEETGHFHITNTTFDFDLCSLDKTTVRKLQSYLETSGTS
RanGTP-Impb inh: inhibitors of RanGTP-importin-beta interaction, primary screen, biochemical, FRET, CFP-Ran, YFP-importin-beta, homogeneous; cell-free CFP-Ran/YFP-importin-beta FRET ratio; inhibition, % (test concentration not listed); hit rate 1.1% among 300,000;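 active = most replicates above 15%; inconclusive = exactly half above 15%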;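 note: 0% = DMSO wells and 100% = Ran loaded with GDP instead of GTP; wells of about 40 µL received 100 nL stock; the first replicate is given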
The depositor's hits bear a star; ? = inconclusive; . = not tested or not shown. Not a hit list (roughly 4.3% active in at least one column).

Structure,Beta apoptosis,Bfl-1 A1 inh,Vif TR-FRET,LANA-H2A inh,Calb FLC,T cruzi repl,MLL AF4-AF9 inh,RanGTP-Impb inh
C#CCOCCOCCOCCNc1nc(N2CCN(C(=O)Cn3cc(CCCCN)nn3)CC2)nc(N2CCN(C(=O)[C@H](C(C)C)n3cc(CCO)nn3)CC2)n1,-6,1.1,0%,5.3,-26,-20,.,1.5
Cc1cc(Br)ccc1NC(=O)C1CCCO1 (stereo not given),0,0.1,0%,-5.7,-8,1,.,?
COc1ccc(C(=O)NC(=S)NC(C)(C)C)cc1Br,13,-1.6,-4%,-9.8,3,3,.,1.7
Cc1ccccc1/C=N/Nc1ccc(Cl)nn1,-14,-0.2,10%,2.0,-1,-7,0.4,5.7
COc1ccc(NC(=O)COc2ccc3c(c2)CCC3)cc1S(N)(=O)=O,-3,-0.8,.,0.8,.,.,-0.3,.
COC(=O)CN(c1ccc(Cl)cc1C)S(C)(=O)=O,0,0.1,.,2.6,?,-8,-1.6,3.5
CC(C)n1cc(C(N)=S)c(=O)n(Cc2ccccc2)c1=O,3,0.4,-6%,-1.0,5,-9,-0.3,0.7
CC1=NN(/C(=N\c2nnc(C)s2)Nc2ccccc2)[C@H](c2ccc(C)cc2)S1,-10,0.4,2%,1.4,-5,-11,.,-3.6
CN=CC1=C(O)C(C(=O)OC)C(C)(C)CC1=O (stereo not given),-5,0.2,-1%,-0.5,-3,-3,-0.4,-1.8
CC1CCCC/C1=N\Nc1ccc(S(N)(=O)=O)cc1[N+](=O)[O-] (stereo not given),-4,-0.1,-5%,-1.2,-9,4,.,5.2
CCN(C(=O)c1c(-c2ccccc2)noc1C)c1ccccc1,-4,1.7,8%,-2.4,28,0,.,-2.8
CN(Cc1ccc(F)cc1)C(=O)C(Cc1ccccc1)NC(=O)c1ccccc1 (stereo not given),5,0.4,2%,1.4,-1,-12,-0.4,3.9
Cc1ccccc1C(=O)Oc1cccc2c(O)cccc12,2,-0.2,.,1.0,21,-12,-4.7,-0.9
Cc1ccc(NC(=O)c2cc(-c3ccc4c(c3)OCO4)on2)cc1,-1,-1.8,2%,1.1,-19,-7,0.8,3.7
CC(NC(=O)c1ccc(Cl)c(Cl)c1)c1ccc(-c2ccccc2)cc1 (stereo not given),10,1.2,4%,-6.2,-9,3,-2.5,-2.9
CCOc1ccc(CCNC(=O)CS(=O)Cc2nc(-c3ccccc3Cl)oc2C)cc1OCC (stereo not given),-3,0.5,.,-1.6,0,25,1.4,1.1
CCN1C(=O)S/C(=C/c2ccc(Oc3ccc([N+](=O)[O-])cn3)c(OC)c2)C1=O,3,0.8,?,-3.3,-5,11,-0.6,-1.0
O=C(c1cc(-c2ccccc2O)on1)N1CCc2ccccc2C1,-7,-3.4,0%,-5.1,4,-15,-4.5,3.8
COc1ccc(S(=O)(=O)N(CCCN2CCOCC2)Cc2cccc3ccccc23)cc1,1,-0.4,-5%,-11,11,3,.,5.0
CCCOC(=O)c1cc(NC(=O)/C=C/c2ccccc2)ccc1O,-20,0.1,?,-0.4,42,-10,0.7,-1.6
Cc1ccc(NS(=O)(=O)c2cccc(C(=O)NCC(c3ccc(F)cc3)N3CCOCC3)c2)cc1 (stereo not given),6,-0.2,-5%,.,-2,20,1.3,1.6
C=CCn1cccc(C(=O)Nc2ccc(Cl)cc2)c1=O,2,-0.9,2%,3.2,-12,1,-1.9,-0.8
CCN1C(=O)[C@H]2[C@@H](c3ccc(-c4ccc(F)cc4)cc3)N[C@@](CC(C)C)(C(=O)OC)[C@H]2C1=O,7,1.7,.,-4.6,-14,-8,1.6,2.3
CCCNC(=O)c1cc(-c2ccccc2)c(N2CCCCC2)s1,.,-0.3,-29%,-0.8,-6,26,11,-2.6
Cc1cc2nc(-c3ccccn3)c(-c3ccccn3)nc2cc1C,.,.,-10%,.,5,4,0.1,5.2
Cc1ccc(S(=O)(=O)NNC(=O)Nc2ccc(Cl)cc2)cc1,-4,-0.3,32%,2.7,-5,-10,.,?
COc1ccc(-c2oc3c4c(cc(OC)c3c(=O)c2CC=C(C)C)OC(C)(C)C=C4)c(OC)c1,9,-0.5,.,-7.3,1,65*,.,4.8
COc1ccc(C)cc1-n1nnnc1SCC1CCCO1 (stereo not given),1,-0.3,-2%,-4.0,-4,-5,.,-3.8
COc1cc(OC)cc(C(=O)NC(C(=O)Nc2ccc3c(c2)CCC3)C(C)C)c1 (stereo not given),4,-0.1,4%,-0.2,.,.,1.9,.
Cc1ccc(NC(=O)CSc2n[nH]c(N)n2)cc1S(=O)(=O)N1CCOCC1,-5,-0.3,0%,3.6,7,-3,4.4,6.3
O=C(NCCc1ccc(Cl)cc1Cl)c1cc([N+](=O)[O-])c[nH]c1=O,2,-1.4,.,-5.6,56,1,0.3,2.6
CCc1ccccc1N1CCN(S(=O)(=O)c2ccc(F)c(C)c2)CC1,.,0.7,-4%,2.0,-5,14,.,0.0
COc1ccc(C(=O)Nc2ccccc2C(=O)N/N=C/c2ccncc2)cc1OC,53,-5.9,-9%,-0.2,0,7,1.8,3.8
CC1CCN(C(=O)COC(=O)C23CC4CC(CC(O)(C4)C2)C3)CC1,-13,-0.1,.,-0.6,.,.,0.5,.
CCN1C(=O)S/C(=C/c2ccc(Sc3nc4ccccc4[nH]3)o2)C1=O,13,-1.0,.,-3.5,10,-18,3.6,2.6
CNc1c(N)c(=O)oc2ccccc12,.,0.4,.,1.6,-9,-2,1.6,4.3
COCCN(C(=O)c1ccccc1OC)c1nnc(C)s1,-6,0.5,8%,-5.3,0,-15,3.8,-1.0
O=C(CN(c1ccc(F)cc1)S(=O)(=O)c1ccc2c(c1)OCCO2)N1CCOCC1,-3,-0.1,-5%,2.4,-1,-10,0.9,-2.5
O=C(COC(=O)Cc1c[nH]c2ccccc12)Nc1ccccc1,-12,-0.3,0%,6.8,?,-14,3.6,0.8
COc1ccc(NCc2nnc(SCc3ccc(Cl)cc3)n2-c2ccccc2)cc1,-2,1.5,2%,-3.9,-2,16,.,1.6
Cc1ccc(C(=O)NCC(=O)N2CCc3ccccc3C2)cc1C,-1,0.5,.,-0.8,1,7,-2.2,1.1
O=C(CSc1nc2c(c(=O)[nH]1)CCC2)Nc1cccc(Cl)c1,1,-0.9,-1%,-3.4,?,4,.,-1.4
Cc1ccc(S(=O)(=O)N(C)C)cc1NC(=O)C(C)NC(C)c1cccs1 (stereo not given),4,1.4,-3%,-1.7,12,-13,-24,2.5
COc1cc(C(=O)NCCc2ccc(S(N)(=O)=O)cc2)ccc1OCc1c(C)noc1C,3,1.1,3%,-4.7,.,.,-1.1,.
Fc1ccc(/C=N/NC(=S)Nc2ccc(Cl)cc2)cc1F,1,0.6,.,-1.5,11,-21,.,4.3
Cc1nc(-c2ccc(NC(=O)c3cccs3)cc2)cs1,-4,-8.3,1%,-1.5,-5,9,.,0.4
Cn1cccc1CC(=O)N/N=C/c1ccc([N+](=O)[O-])cc1,1,-0.1,3%,3.8,1,6,1.4,-0.5
CCCNC(=O)c1ccc2c(=O)n3c(-c4ccc(C)cc4)csc3nc2c1,-12,-1.3,-80%,3.3,-8,-21,-6.0,-0.3
COc1cccc(NC(=O)CN(C)C(=O)c2cc(S(=O)(=O)N3CCCCC3)ccc2Cl)c1,.,1.2,3%,1.6,-2,-6,-8.0,-1.0
CC1(C)CC(=O)C(C2C3=C(CC(C)(C)CC3=O)Oc3ccccc32)C(=O)C1 (stereo not given),-7,-0.1,1%,3.0,8,0,.,2.7
Nc1cc(OC(=O)c2c(F)cccc2Cl)nn1S(=O)(=O)c1ccccc1,6,0.3,-6%,0.1,9,-14,-0.6,3.5
CC(=O)n1c2c(c3ccccc31)OC(N)=C(C#N)C2c1ccc(C(C)C)cc1 (stereo not given),-13,-0.2,3%,-11,7,9,-2.1,31*
Cc1cc(/C(=N/O)C(C)(C)NO)ccc1Cl,-7,0.1,-5%,-4.3,-2,2,.,-0.6
O=C(Cn1cnc([N+](=O)[O-])n1)N/N=C/c1ccc2ccccc2c1,-2,-1.0,13%,-5.9,-3,62*,1.6,4.1
CCCOc1ccc(CC(=O)NNC(=S)Nc2ccccc2)cc1Br,9,0.4,3%,-1.7,15,9,.,2.4
COc1cc(S(=O)(=O)N(Cc2ccccn2)Cc2ccccc2Cl)ccc1-n1cnnn1,.,-0.2,23%,-4.0,-1,29,.,10
CC(C)(C)NC(=O)c1ccccc1-c1nc(-c2ccccc2Cl)no1,-2,-0.4,0%,-2.7,-27,4,.,0.3
COC(=O)Cn1c(=O)c2c(nc(Br)n2Cc2ccccc2Cl)n(C)c1=O,-1,0.4,-10%,-34,4,-4,.,-2.0
COc1ccc(C2c3ccsc3CCN2C(=O)NC(C)(C)C)cc1 (stereo not given),-1,0.8,-4%,2.8,-6,1,-1.3,0.6
[O-]/[N+](=C\c1ccccc1)c1ccccc1,-14,-1.0,.,-0.4,.,.,0.6,.

Continuation:
Structure,Beta apoptosis,Bfl-1 A1 inh,Vif TR-FRET,LANA-H2A inh,Calb FLC,T cruzi repl,MLL AF4-AF9 inh,RanGTP-Impb inh
CC(C)c1ccc(NC(=O)C(=O)C2C(=O)Nc3ccccc32)cc1 (stereo not given),2,0.3,.,-0.2,9,-7,8.9,5.3
O=c1cc(-c2ccccc2Cl)oc2c(NS(=O)(=O)c3cccs3)ccc(O)c12,7,-0.6,.,4.3,16,11,21,-2.1
O=C(CNC(=O)[C@@H]1Cc2ccccc2CN1)NC1CCCC1,1,-0.5,.,-0.6,-4,-13,0.5,-0.3
Cc1ccc(-c2nnc(N3CCOCC3)c3ccccc23)cc1S(=O)(=O)N(C)C,.,.,-45%,.,7,2,-3.0,3.1
O=C(NCCCN1CCN(c2cccc(Cl)c2)CC1)c1nc(-c2ccncc2)no1,5,-1.0,-3%,-0.8,-19,48,.,1.1
CC(=O)Nc1ccccc1-c1nc2ccc(C(=O)N3CCN(c4cc(C)ccc4C)CC3)cc2[nH]c1=O,-4,0.4,3%,-7.0,-2,-1,2.5,2.8
CCc1ccc(CCC(=O)Nc2ccc(Br)cc2)o1,3,0.3,.,-0.6,-11,12,1.0,2.1
CCOc1cccc(N2C(=O)CC(N3CCC(C(N)=O)(N4CCCCC4)CC3)C2=O)c1 (stereo not given),-7,0.3,11%,1.0,2,-18,.,-0.8
O=C1c2cccc3c(N4CCOCC4)c([N+](=O)[O-])cc(c23)C(=O)N1c1cccc2ccccc12,4,0.1,3%,0.2,5,12,-2.4,-1.9
CC12CN3CC(C)(CN(C1)C3c1ccc3c(c1)OCO3)C2 (stereo not given),-3,0.8,-5%,2.1,6,-19,1.4,-1.2
